Screens: PubChem, National Center for Advancing Translational Sciences (NCATS)
TRPML1 ag – agonists of human TRPML1 channel. Q9GZU1. TRPML1-expressing cells, Ca2+ dye fluorescence, FDSS; host cell line not named in the record; reference of the full effect not given here. activation, % (no concentration beside the values). 410,000 tested, 0.12% active. AID 624414; in the data active = activation above about 50%; inconclusive = about 30% to 50%; inactive = below about 30%; also: 0% is about no effect; the text of the record puts the active cut at 80%
Target sequence (Q9GZU1 whole entry, looked up): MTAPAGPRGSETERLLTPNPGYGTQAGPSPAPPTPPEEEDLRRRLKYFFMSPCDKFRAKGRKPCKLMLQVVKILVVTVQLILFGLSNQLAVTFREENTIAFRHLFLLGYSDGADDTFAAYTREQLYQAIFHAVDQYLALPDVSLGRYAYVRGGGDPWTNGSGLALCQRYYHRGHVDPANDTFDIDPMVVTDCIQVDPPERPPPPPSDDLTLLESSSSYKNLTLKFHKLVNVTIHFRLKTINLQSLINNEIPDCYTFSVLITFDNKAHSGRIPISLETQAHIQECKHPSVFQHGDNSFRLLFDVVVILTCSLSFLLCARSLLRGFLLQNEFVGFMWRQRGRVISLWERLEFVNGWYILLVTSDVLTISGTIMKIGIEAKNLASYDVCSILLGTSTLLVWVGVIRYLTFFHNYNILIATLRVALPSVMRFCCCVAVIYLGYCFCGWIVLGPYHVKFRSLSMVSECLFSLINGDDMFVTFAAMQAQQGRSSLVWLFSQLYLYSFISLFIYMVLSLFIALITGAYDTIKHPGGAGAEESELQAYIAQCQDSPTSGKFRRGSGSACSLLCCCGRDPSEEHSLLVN
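Tetracycline-induced TRPML1-DL cells are seeded and incubated overnight before loading with a no-wash Ca2+ dye and quencher. Agonist activity is taken from the 110 s fluorescence read following compound pin-transfer on an FDSS, before EC80 54-4 challenge.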
gsp antag – antagonists of gsp mutant (McCune-Albright syndrome) | Potency, µM (highest dose often 76.9 µM), inactives show at the highest dose activity change, negative = inhibition, actives largely listed as inhibitors | gsp-mutant cells, cAMP HTRF, 30 min; control for the full effect not named in the record | 340,000 tested, 0.4% active; active = falling curve of any shape with a large fitted effect; inconclusive = falling curve, mostly with a smaller effect; inactive = flat or rising curve; cell line not stated here;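 also: intracellular cAMP measured with PDE inhibitor Ro 20-1724 present during compound exposure; potency is read from the fitted curve at half-maximal effect; % is scaled to controls: 0 for no effect and ±100 for the full control effect; nearly all actives have a fitted effect of over 65% in size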
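HTRF cAMP read-out (cAMP-d2 plus anti-cAMP antibody-K in lysis buffer, 30 min RT). Before lysis, cells are exposed to compounds with […] for 30 min at 37C in DPBS containing Ca/Mg, BSA and Tween 20.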
Menin-MLL FL inh – menin-MLL binding inhibition, fluorescein peptide; Fluorescence polarization, fluorescein-MLL peptide displacement from menin; FP activity change, % at 61.4 µM; 290,000 tested, under 10 active; AID 1766; inconclusive = falling polarisation curve, or a change in total fluorescence; inactive = total fluorescence flat and polarisation flat or rising; no compound was filed as active; the % refers to the polarisation; negative = inhibition;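 also: % of control where 0% means no effect; inhibitors lower the polarisation; unlabelled MLL peptide was the positive control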
ClpP mod – qHTS Assay for Activators of ClpP. ATP-dependent Clp protease proteolytic subunit (Bacillus subtilis (strain 168)), P80244. purified B. subtilis ClpP, FRET peptide cleavage, 20 min. Potency, µM (top dose mostly 57.5 µM), inactives show at the top dose activity change, negative = active. 340,000 tested, 1.9% active. AID 651965, 2013; active = well fitted falling curve with a large enough effect; inconclusive = small, poorly fitted or top-dose-only effect; inactive = no such curve, though single readings can be large or run the other way; also: potency is read from the fitted curve at half-maximal effect; the source files actives as falling curves though it sought activators and does not explain the sign; nearly all actives have a fitted effect of over 65% in size; many hits overshoot -100%
Target sequence (P80244 whole entry, looked up): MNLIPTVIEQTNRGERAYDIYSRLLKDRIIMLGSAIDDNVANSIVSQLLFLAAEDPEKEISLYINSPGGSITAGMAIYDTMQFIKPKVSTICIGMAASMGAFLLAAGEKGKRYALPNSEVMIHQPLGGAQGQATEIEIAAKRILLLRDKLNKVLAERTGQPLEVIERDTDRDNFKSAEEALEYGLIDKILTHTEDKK
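Buffer: 100 mM Tris/HCl pH8, 100 mM KCl, 0.05% low protease BSA, 2.5% glycerol, 0.01% Tween-20. ClpP 10 microg/mL final; 20 min RT; delta FRET normalized to ADEP and DMSO controls.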
TRPML1 inh – inhibitors of human TRPML1 channel; Q9GZU1; TRPML1-inducible cells, Ca2+ dye fluorescence, FDSS; stronger effect = lower value; inhibition of EC80 agonist-evoked calcium signal; activity change, negative = inhibition, % (concentration not given with the values); 390,000 tested, 0.02% active; AID 624415; in the data active means activity change below about -50%; inconclusive means about -30% to -50%; inactive means above about -30%;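 also: stimulus is agonist 54-4 at its EC80 concentration; % is scaled to controls: 0 for no effect and ±100 for the full control effect; compound concentration not given in the record; the text of the record puts the active cut at -80%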
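Calcium fluorescence in TRPML1-DL cells induced overnight with Tet: a 110 s read after compound pin addition, then a 110 s antagonist read after challenge with 54-4 at 4 uM final (EC80).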
gsp ag – activates gsp, the McCune-Albright syndrome mutation. Potency, µM (top dose mostly 76.9 µM), without a hit: top-dose activation (cAMP increase), usual class: activators. 340,000 tested, 0.13% active. gsp mutant cells, cAMP HTRF, 30 min; control for the full effect not named in the record; active = well fitted activation curve with a large enough effect; inconclusive = small, poorly fitted or top-dose-only effect, or another doubt; inactive = no such curve, though single readings can be large or run the other way; cell line not stated here;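 also: phosphodiesterase inhibitor Ro 20-1724 added with compounds to block cAMP breakdown; potency is read from the fitted curve at half-maximal effect; nearly all actives have a fitted effect of over 60% in size; about a fifth of the inactives were tested at one dose only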
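Cells in DMEM/10% FBS with G418 were pretreated with compounds in DMSO plus […] (300 uM stock) for 30 min at 37C. cAMP was measured by HTRF (cAMP-d2 plus anti-cAMP antibody-K) after 30 min at room temperature.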
* hit, by the source's call; ? = inconclusive; nt = no result given; & = joins results of further samples; [ ] = dose if it differs, or a comment.

Each structure is followed by: gsp antag	TRPML1 inh	Menin-MLL FL inh	gsp ag	ClpP mod	TRPML1 ag
> Cc1c(CC(=O)NCCC(=O)O)c(=O)oc2cc3occ(-c4ccccc4)c3cc12
    -6%	-9	-5.5	?	nt	0.5
> CCN(CC(=O)Nc1ccc2c(c1)OCCO2)C(=O)C1CCCCC1
    9%	6	0.6	-3%	2.0%	-1.0
> COc1ccc(N(C(=O)/C=C/C(=O)Nc2cc(C)on2)C(C(=O)NC2CCCC2)c2ccccc2C)cc1 (stereo not drawn)
    -18%	5	1.3	5%	-1.5%	-0.1
> Cc1ccc(-c2nn(C)c(=O)c3ccccc23)cc1S(=O)(=O)NCCCN(C)C
    nt	2	nt	nt	-4.2%	-0.3
> CCOC(=O)/C=C/C(=O)OCC(=O)NCc1ccccc1
    -2%	3	3.7	-9%	-0.3%	0.1
> Cc1ccc(S(=O)(=O)N(C)CC(=O)NC2CCCC2)cc1
    6%	-14	5.8	4%	-0.9%	0.2
> O=C(COc1ccc(F)cc1Br)Nc1ccccc1N1CCOCC1
    -42%	-10	nt	-62%[inhibitor]	0.3%	71*
> O=C(Nc1ccc(-c2nc3ccc(NC(=O)c4cccs4)cc3[nH]2)cc1)c1cccs1
    0%	-2	-0.7	5%	-12%	-0.1
> COc1ccc(CCN(C)C(=O)CCc2nnc(-c3ccccc3)o2)cc1OC
    1%	34	6.6	0%	nt	0.1
> Cc1nc2cc(-c3ccccc3)ccc2o1
    -21%	-3	-3.6	?	5.1%	0.5
> N#Cc1ccc(OCC(=O)NNC(=S)NC(=O)C2CC2)cc1
    3%	30	nt	23%	-3.6%	0.6
> O=C(c1ccc2c(c1)OCCO2)C1CCN(C(=O)Nc2ccc(F)cc2)CC1
    -32%	3	nt	2%[15.4 µM]	1.0%	-1.5
> Cc1cccc(-c2noc(-c3ccc(NCC4CCCO4)c([N+](=O)[O-])c3)n2)c1 (stereo not drawn)
    nt	-2	nt	nt	-0.2%	-0.6
> CCCOc1ccc(C(C)=O)cc1CN1CCOCC1
    -7%	1	2.8	?	-2.5%	-0.6
> C1CCN(c2c3c(nc4nnnn24)CCCC3)CC1
    -5%	-1	0.8	22%	-0.2%	-0.5
> Cc1cc(C)cc(NC(=O)CCc2ccc(C)o2)c1
    10%	21	nt	-20%	0.0%	0.6
> COCCCNC(=S)N/N=C/c1cccc(OC)c1O
    7%	-10	1.1	9%[15.4 µM]	nt	0.2
> CN(C)S(=O)(=O)c1ccc(N2CCCC2)c(C(=O)NC(c2ccccc2)c2ccccc2)c1
    5%	11	-0.3	-2%	-3.1%	1.6
> O=C(Oc1ccc(Cl)c2cccnc12)c1cccc([N+](=O)[O-])c1
    14%	13	2.4	-12%	0.7%	0.3
> Cc1ccc(C)c(NC(=S)NNC(=O)c2csc(C)c2C)c1
    1%	35	0.2	8%	1.1%	-0.1

(more compounds)
Each structure is followed by: gsp antag	TRPML1 inh	Menin-MLL FL inh	gsp ag	ClpP mod	TRPML1 ag
> CC(C)Nc1nc(SCC(=O)Nc2ccccc2)nc(N2CCOCC2)n1
    9%	18	4.9	45%	0.9%	-0.9
> CCc1c(C(=O)OCc2ccccc2)[nH]c(C)c1C
    4%	-2	4.1	-1%[15.4 µM]	nt	1.5
> Cc1ccc(C(C(=O)Nc2ccc3c(c2)OCO3)N(C)C(=O)Cc2c[nH]c3ccccc23)cc1 (stereo not drawn)
    -7%	6	0.0	-8%[15.4 µM]	-0.7%	0.3
> O=C(CSc1nnc(CNC(=O)c2ccc(F)cc2)o1)Nc1ccc2c(c1)OCCO2
    10%	-2	nt	-16%	1.3%	0.9
> CC(=O)c1ccc(NC(=O)CSc2ccc(-c3ccc(-n4cccn4)cc3)nn2)cc1
    -5%	6	nt	33%[15.4 µM]	nt	0.1
> CCOC(=O)C1CCN(C(c2cc(OC)c(OC)c(OC)c2)c2sc3nc(C)nn3c2O)CC1 (stereo not drawn)
    9%	-10	0.5	-51%[inhibitor]	0.2%	0.4
> Cc1ccc2c(c1)NCC(C(=O)NC1CCCCC1)O2 (stereo not drawn)
    5%	-21	4.9	-38%[inhibitor]	0.4%	0.0
> Cc1ccc(CNC(=O)C2CC3Cn4c(nc5cc(Cl)c(Cl)cc54)C3N2C)o1 (stereo not drawn)
    -2%	8	1.5	9%	-0.3%	-1.0
> CCOC(=O)c1c(C)c(C(=O)N(C)C2CCCCC2)c(C)n1C
    -14%	2	0.7	-13%	0.0%	-0.3
> CNC(=O)COc1ncnc2sccc12
    5%	0	1.7	-7%	-1.5%	-0.4
> CCCCCCNc1nc(NCc2ccco2)nc(OCC)n1
    ?	25	3.6	22%	-3.2%	5.9
> O=C(NC1CCCCC1)c1sc(=S)n2c1[nH]c(=O)c1ccccc12
    45µM*	7	3.5	-37%[inhibitor]	1.3%	6.5
> CCCn1c(=O)c(C(=O)Nc2ccccc2C)c(O)c2ccccc21
    1%	-2	5.0	21%[15.4 µM]	0.4%	0.3
> CC1CC(C)CN(c2oc(-c3ccccc3Cl)nc2C#N)C1 (stereo not drawn)
    -5%	11	-0.2	-7%	11µM*	1.0
> COc1ccc(OCCNC(=O)c2ccccc2OCC(=O)N2CCCCC2)cc1
    ?	-21	2.7	2%	-0.7%	1.0
> Cc1ccc(-c2ccc(OC(=O)c3ccc(=O)[nH]c3)c(C)c2)cc1
    -13%	2	3.4	-33%[inhibitor]	1.7%	2.0
> O=C(Cn1cnc2c(oc3ccccc32)c1=O)Nc1ccccc1C(F)(F)F
    nt	10	nt	nt	1.7%	-0.4
> CCc1ccc(C(=O)COC(=O)C2CCN(c3ccc(C(F)(F)F)cn3)CC2)cc1
    0%	10	nt	-2%	-5.0%	0.3
> CN(Cc1ccccc1N1CCCC1)C(=O)c1cc2ccccc2o1
    ?	19	nt	-28%	nt	0.0
> O=C(COc1cccc2c1CCN(Cc1ccccc1)C2=O)N1CCCCC1
    -3%	-8	-4.5	15%[15.4 µM]	0.1%	-1.4

Further entries follow.
Each structure is followed by: gsp antag	TRPML1 inh	Menin-MLL FL inh	gsp ag	ClpP mod	TRPML1 ag
> CCN(C(=O)c1cn(CC)c(=O)c2cc(OC)c(OC)cc12)c1ccccc1F
    nt	12	nt	nt	-6.0%	-0.2
> CC(C)N(C(=O)COC(=O)c1ccc(Cl)s1)c1ccccc1
    -1%	-1	nt	?	-4.1%	1.1
> O=C(Nc1cccc(F)c1)c1oc2ccccc2c1NC(=O)C12CC3CC(CC(C3)C1)C2
    nt	4	nt	nt	-4.8%	0.3
> COc1ccc(-c2noc(CN(C)CCC3CCCCO3)n2)cc1 (stereo not drawn)
    5%	4	0.5	1%[15.4 µM]	nt	1.7
> CCCCn1cc(C(C)(C)C)c(C#N)c1NC(C)=O
    1%	1	-1.1	11%	-4.5%	2.9
> CCOc1ccc(OCCSc2nc(C)cc(=O)[nH]2)cc1
    -3%	-3	-1.5	-29%	-1.5%	0.2
> CC(=O)Nc1ccc(C(=O)NNC(=O)CCCCC(=O)NNC(=O)c2ccc(NC(C)=O)cc2)cc1
    8%	-21	nt	1%	nt	-0.2
> COc1cccc2c(N/N=C/c3ccco3)cc(C)nc12
    -1%	-29	4.7	-35%[inhibitor]	?	2.6
> O=C(NC(=S)Nc1ccc(Cl)cc1)c1ccccc1
    6%	-4	-8.3	17%	nt	0.8
> CC(C)CC(COCc1ccc(F)cc1)N1CCN(C(=O)c2cccc(C(F)(F)F)c2)CCC1=O (stereo not drawn)
    -2%	-18	-0.7	-2%	1.9%	-0.3
> CCC(=O)NNc1nc2c(C)cccc2s1
    -1%	-21	-1.1	-47%[inhibitor]	-2.4%	1.2
> C=C1CCN(Cc2ccccc2)S(=O)(=O)c2ccccc21
    3%	73&1	-0.6&-0.5	-3%	-0.7%	3.6&-1.2
> Cc1ccccc1Nc1c(-c2ccc(Cl)s2)nc2c(C)cccn12
    nt	42	nt	nt	3.9%	0.0
> Cc1ccc(C)c(CN2C(=O)c3ccccc3S(=O)c3ccc(C(=O)NCc4ccccc4)cc32)c1 (stereo not drawn)
    nt	14	nt	nt	-0.2%	0.2
> COc1cccc(NC(=O)C(=O)N/N=C/c2cc(C)n(-c3ccc(Cl)c(Cl)c3)c2C)c1
    17%	18	0.3	17%	230%	2.4
> C[C@]12CC[C@@H]3c4ccc(O)cc4CC[C@H]3[C@@H]1CC[C@@H]2OC(=O)CCC(=O)O
    -35%	-8	-2.6	nt	1.8%	0.1
> O=C(CCn1c(=O)oc2ccccc21)N(Cc1ccccc1)c1ccccn1
    -13%	-6	nt	?	-0.4%	0.1
> COC(=O)c1sccc1NC(=O)c1ccco1
    6%	-1	-1.2	-1%	-11%	0.8
> COC(=O)c1cc(NC(=O)c2cccc(F)c2)cc(C(=O)OC)c1
    -16%	5	3.3	18%	nt	-0.5
> CCn1c(SCC(=O)NC(C)c2ccccc2)nc2ccccc21 (stereo not drawn)
    0%	4	0.9	-27%	-2.2%	0.5

Arranged by length of the SMILES (high to low): 3 of the compounds above
Each structure is followed by: gsp antag	TRPML1 inh	Menin-MLL FL inh	gsp ag	ClpP mod	TRPML1 ag
> Cc1c(CC(=O)NCCC(=O)O)c(=O)oc2cc3occ(-c4ccccc4)c3cc12
    -6%	-9	-5.5	?	nt	0.5
> COc1ccc(CCN(C)C(=O)CCc2nnc(-c3ccccc3)o2)cc1OC
    1%	34	6.6	0%	nt	0.1
> CCOc1ccc(OCCSc2nc(C)cc(=O)[nH]2)cc1
    -3%	-3	-1.5	-29%	-1.5%	0.2

New compounds follow:
Each structure is followed by: gsp antag	TRPML1 inh	Menin-MLL FL inh	gsp ag	ClpP mod	TRPML1 ag
> CCc1ccccc1NC(=O)Cn1c(=O)n(-c2ccccc2)c(=O)c2oc3ccccc3c21
    nt	2	nt	nt	-8.2%	-0.8
> COc1ccccc1CCNC(=O)C(=O)NCC1CCCN1S(=O)(=O)c1ccccc1 (stereo not drawn)
    -8%	5	nt	-6%[15.4 µM]	nt	2.2
> COc1ccc(F)cc1C(=O)C1CCCN(C(=O)CSc2ccccn2)C1 (stereo not drawn)
    3%	-23	5.9	-5%[15.4 µM]	nt	-0.9
> Cn1c(N)c(C(=O)COC(=O)[C@H](Cc2ccccc2)N2C(=O)c3ccccc3C2=O)c(=O)n(C)c1=O
    7%	4	0.6	0%	1.0%	0.4
> Nc1sc(-c2ccccc2)cc1C(=O)N/N=C/c1ccc(Cl)cc1
    -15%	15	3.8	-12%	nt	-0.2
> N/C(=N\O)c1ccncc1
    11%	11	0.2	-2%[15.4 µM]	nt	0.3
> O=C(CN1CCN(Cc2ccc(F)cc2Cl)C1=O)NCCCN1CCOCC1
    13%	10	2.1	-3%	-0.9%	-0.8
> O=C(NC1CCCCCC1)C1CCC(CNS(=O)(=O)c2ccc(Br)s2)CC1 (stereo not drawn)
    -21%	8	1.6	-11%[15.4 µM]	0.7%	-0.6
